FGF22 binding = binders of human FGF22 protein, primary screen, FGF22 synaptogenesis inhibitor project, biophysical, thermal shift, single point | calls only at 9.99 µM | recombinant FGF22 thermal shift, SYPRO orange fluorescence; percent of sucrose octasulfate shift, DMSO zero | 340,000 tested, 1.5% active | AID 651658, 2012 | Fibroblast growth factor 22 (Homo sapiens), Q9HCT0;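 active means melting point raised past a set limit in the mean and every replicate; three in four hits are not shown here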
Target sequence (Q9HCT0 whole entry, looked up): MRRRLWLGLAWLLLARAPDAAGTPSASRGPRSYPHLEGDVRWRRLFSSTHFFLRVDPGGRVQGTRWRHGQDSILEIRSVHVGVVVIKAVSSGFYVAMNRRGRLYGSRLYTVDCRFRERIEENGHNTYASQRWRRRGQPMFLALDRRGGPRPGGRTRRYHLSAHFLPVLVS
Ecoli rRNA inh = reduced GFP signal of wild-type E. coli, primary screen, bacterial rRNA inhibitor project, GFP/RFP fluorescence, OD600, single point; E. coli WT GFP vs humanized-ribosome RFP mutants, 24 h; active compounds read low; DMSO median 0, no signal -100; GFP signal change (wild-type ribosome), % (concentration not given with the values); 350,000 tested, 1.6% active; AID 720706, 2013;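 active means significant combined selectivity score with lowered wild-type GFP, culture density cut under 30%, mutant RFP and density less affected; inactive means any of these conditions unmet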; further: one replicate is shown; some compounds called inactive have numbers as strong as hits
Ecoli rRNA inh OD600 = recorded beside Ecoli rRNA inh, whose call it bears; OD600 change, %; measured here: OD600 growth;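 optical density of the mix in the first replicate; 0 = DMSO median and -100 = no signal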
Ecoli rRNA inh RFP = further read-out of Ecoli rRNA inh, marked with its call; RFP signal change, %; measured here: RFP humanized mutant strains;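 first replicate; 0 = DMSO median and -100 = no signal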
Starred values were filed as active, the others as inactive; i = inactive; + = active, no number; & = joins results of further samples. The list is partial. The share of hits here may be higher or lower than overall.

SMILES | FGF22 binding | Ecoli rRNA inh | Ecoli rRNA inh OD600 | Ecoli rRNA inh RFP
C[C@H](CO)N1C[C@H](C)[C@H](CN(C)Cc2ccc(C(F)(F)F)cc2)Oc2ccc(NC(=O)CCC(F)(F)F)cc2C1=O | i | 1 | -8 | 1.3
COc1ccc(NC(=O)N(C)C[C@@H]2Oc3ccc(NS(=O)(=O)c4ccc(Cl)cc4)cc3CC(=O)N([C@@H](C)CO)C[C@@H]2C)cc1 | i | 3 | 2 | -1.3
O=C(Nc1ccccc1)N1CCCCN2[C@H](CO)[C@@H](c3ccc(-c4ccncc4)cc3)[C@@H]2C1 | i | 1 | 4 | 4.6
CC(C)NC(=O)Nc1ccc2c(c1)CC(=O)N([C@H](C)CO)C[C@@H](C)[C@@H](CN(C)S(=O)(=O)c1cccs1)O2 | i | 1 | 10 | 0.2
COc1cccc(S(=O)(=O)Nc2ccc3c(c2)OC[C@@H](C)NC[C@@H](C)[C@H](OC)CN(C)C3=O)c1 | i | 4 | 5 | -1.9
Cn1cnc(CCNC(=O)C[C@@H]2CC[C@H]3[C@@H](COC[C@@H](O)CN3C(=O)Nc3ccccc3)O2)c1 | i | 3 | 3 | -1.9
O=C(C[C@H]1C[C@H]2c3cc(NC(=O)Cc4ccncc4)ccc3O[C@H]2[C@@H](CO)O1)NCc1cccnc1 | i | -2 | 6 | -2.4
COCC(=O)Nc1ccc2c(c1)OC[C@H](C)N(CCc1ccccc1)C[C@@H](C)[C@@H](OC)CN(C)C2=O | i | 0 | 0 | -1.2
C[C@@H]1CN([C@@H](C)CO)C(=O)c2cc(C#Cc3ccccc3)cnc2O[C@H]1CN(C)S(=O)(=O)c1ccccc1F | i | 1 | -2 | -2.7
CC(=O)N(C)C[C@H]1Oc2ncc(C#CC3(O)CCCC3)cc2C(=O)N([C@H](C)CO)C[C@@H]1C | i | 6 | 1 | 0.6
COc1ccc(NC(=O)Nc2ccc3c(c2)C(=O)N([C@@H](C)CO)C[C@H](C)[C@H](CN(C)S(=O)(=O)c2ccc(C)cc2)O3)cc1 | i | 3 | -7 | -2.8
C[C@H]1CN([C@@H](C)CO)C(=O)Cc2cc(NS(=O)(=O)c3ccccc3)ccc2O[C@@H]1CN(C)S(=O)(=O)c1ccccc1 | i | -4 | -9 | 0.0
CCCNC(=O)[C@H]1[C@H](CO)[C@H]2Cn3c(ccc(-c4cccnc4)c3=O)[C@H]2N1CCC | i | 6 | 8 | 1.8
COC(=O)C[C@@H]1C[C@@H]2c3cc(N(C)C)ccc3O[C@@H]2[C@@H](CO)O1 | i | 0 | 5 | 2.2
O=C(C[C@H]1CC[C@H](NC(=O)Nc2ccc(C(F)(F)F)cc2)[C@@H](CO)O1)NCc1cc(F)cc(F)c1 | i | 0 | 6 | -0.6
COc1ccc2c3c(n(C)c2c1)[C@H](CO)N(C(=O)Nc1ccc(F)cc1)CC31CN(S(=O)(=O)c2cccc(C)c2)C1 | i | 0 | 2 | -0.3
CC(C)[C@H](C)NC(=O)N(C)C[C@H]1OCc2ccccc2-c2ccccc2C(=O)N([C@H](C)CO)C[C@@H]1C | i | 1 | 6 | -1.1
Cc1ccccc1S(=O)(=O)N1CC[C@@H]2[C@@H](CO)Nc3ccc(-c4ccc(C#N)cc4)cc3[C@@H]21 | i | -6 | -25 | 20
COc1ccccc1CNC(=O)C[C@H]1C[C@H]2c3cc(NC(=O)Nc4ccc(C(F)(F)F)cc4)ccc3O[C@H]2[C@H](CO)O1 | i | 4 | 1 | -2.3
CCC(=O)N(C)C[C@H]1Oc2ncc(-c3ccc(F)cc3)cc2C(=O)N([C@H](C)CO)C[C@H]1C | i | 3 | 6 | -2.6
C/C=C/c1cnc2c(c1)C(=O)N([C@@H](C)CO)C[C@@H](C)[C@@H](CN(C)C(=O)CN1CCOCC1)O2 | i | 4 | 7 | -1.2
C[C@H]1CN([C@@H](C)CO)C(=O)Cc2cc(NC(=O)Nc3ccccc3)ccc2O[C@@H]1CN(C)S(=O)(=O)c1ccccc1 | i | -1 | 2 | 3.5
Cc1cc(C(=O)Nc2cccc3c2O[C@@H](CN(C)C(=O)Nc2ccc4c(c2)OCO4)[C@H](C)CN([C@H](C)CO)C3=O)n(C)n1 | i | 3 | 11 | -3.8
C/C=C/c1cnc2c(c1)C(=O)N([C@H](C)CO)C[C@H](C)[C@@H](CN(C)C(=O)C1CCCCC1)O2 | i | 0 | -1 | -3.5
C[C@H]1CN([C@@H](C)CO)C(=O)Cc2cc(NS(=O)(=O)c3cccs3)ccc2O[C@@H]1CN(C)C | i | 1 | 0 | -1.3
CC=Cc1ccc2n(c1=O)C[C@H]1[C@H](CO)[C@@H](C(=O)NCC(F)(F)F)[C@@H]2N1C(=O)C1CC1 (mixture of isomers) | i | 1 | 7 | -0.2
Cc1noc(C)c1NC(=O)N(C)C[C@@H]1Oc2ccc(NC(=O)C3CCCCC3)cc2CC(=O)N([C@H](C)CO)C[C@@H]1C | i | 1 | 7 | 0.0
CCC(=O)Nc1ccc2c(c1)C(=O)N(C)C[C@H](OC)[C@@H](C)CN(CC1CCCCC1)[C@H](C)CO2 | i | -4 | -13 | 2.8
C[C@@H]1CCCCO[C@H](CN(C)C(=O)Nc2ccccc2)[C@H](C)CN([C@@H](C)CO)C(=O)c2cc(NS(=O)(=O)c3cccs3)ccc2O1 | i | -3 | -3 | -1.0
CC(C)NC(=O)N[C@@H]1C=C[C@@H](CC(=O)NCCCN(C)C)O[C@@H]1CO | i | 2 | -1 | -0.9
CCCC(=O)N1CC2(C1)CN(C(=O)C1CC1)[C@@H](CO)c1[nH]c3cc(OC)ccc3c12 | i | 3 | 5 | -2.6
CCNC(=O)Nc1ccc2c(c1)C(=O)N(C)[C@@H]1CC[C@H](CC(=O)Nc3ccccc3)O[C@@H]1CO2 | i | 0 | 1 | -0.1
O=C(C[C@H]1CC[C@H]2[C@@H](COC[C@H](O)CN2C(=O)c2ccncc2)O1)NC1Cc2ccccc2C1 | i | 2 | 8 | -1.2
C[C@@H]1CN([C@@H](C)CO)C(=O)c2cc(-c3ccc(C#N)cc3)cnc2O[C@@H]1CN(C)C(=O)Nc1ccccc1 | i | 0 | 4 | -1.8
C[C@@H]1CN([C@H](C)CO)S(=O)(=O)c2ccc(Br)cc2O[C@H]1CN(C)Cc1cncnc1 | i | -3 | -1 | 0.0
Cc1ccc(-c2ccc(C3[C@H]4CNC[C@@H]3N4S(=O)(=O)c3ccc(C)cc3)cc2)cc1 (stereo partly drawn) | i | -54&-36 | -74&-42 | -15&6.0
CO[C@@H]1CN(C)C(=O)c2ccc(NC(=O)c3ccccc3)cc2OC[C@H](C)NC[C@@H]1C | i | 1 | 0 | -1.5
C[C@H]1CCCCO[C@H](CN(C)C(=O)CCC(F)(F)F)[C@@H](C)CN([C@@H](C)CO)C(=O)c2cc(NC(=O)Cc3ccccc3)ccc2O1 | i | -2 | -8 | 2.5
COc1ccc(NC(=O)Nc2ccc3c(c2)C(=O)N([C@@H](C)CO)C[C@H](C)[C@@H](CN(C)S(C)(=O)=O)O3)cc1 | i | 2 | 10 | -0.1
Cc1ccc(-c2ccc3c(c2)O[C@H](CN(C)Cc2ccc(C(=O)O)cc2)[C@H](C)CN([C@H](C)CO)S3(=O)=O)cc1 | i | 5 | 3 | -2.5
O=C(C[C@H]1C[C@@H]2c3cc(NS(=O)(=O)c4ccc(F)cc4)ccc3O[C@@H]2[C@H](CO)O1)NCc1cccnc1 | i | 4 | 0 | 1.8
COCC(=O)N1C[C@H]2[C@@H](c3ccccc31)[C@@H](CO)N2Cc1ccccc1 | i | 0 | 3 | -2.1
COc1ccccc1CN1CC[C@@H]2[C@H](CO)Nc3ccc(-c4cccc(F)c4)cc3[C@@H]21 | i | -54 | -77 | -10
C[C@@H]1CN([C@H](C)CO)C(=O)c2cccc(NC(=O)Nc3cccc4ccccc34)c2O[C@@H]1CN(C)C(=O)Nc1cccc2ccccc12 | i | 3 | 4 | 0.4
CN1CCN(C(=O)C[C@@H]2CC[C@H]3[C@@H](COC[C@@H](O)CN3Cc3cccc(F)c3)O2)CC1 | i | 3 | 9 | -12
C[C@H](CO)N1C[C@H](C)[C@H](CN(C)C(=O)Nc2ccc3c(c2)OCO3)OCCCC[C@H](C)Oc2ccc(NC(=O)c3ccncc3)cc2C1=O | i | -2 | -3 | -0.5
Cc1noc(C)c1NC(=O)N(C)C[C@H]1Oc2ccc(NC(=O)CCN3CCOCC3)cc2C(=O)N([C@H](C)CO)C[C@H]1C | i | 3 | 5 | -0.7
C[C@H]1CN([C@@H](C)CO)C(=O)Cc2cc(NC(=O)Nc3ccc(F)cc3)ccc2O[C@H]1CN(C)C(=O)Nc1ccccc1 | i | 6 | 1 | 1.4
O=C(C[C@H]1CC[C@@H]2[C@H](COC[C@@H](O)CN2C(=O)c2ccccc2F)O1)NCc1ccc(Cl)cc1 | i | 1 | 4 | 31
CO[C@H]1CN(C)C(=O)c2cc(NS(C)(=O)=O)ccc2OC[C@@H](C)N(C(=O)C2CCCCC2)C[C@@H]1C | i | 0 | -7 | -0.3
C[C@H](NC(=O)[C@@H]1N[C@@H]2c3ccc(-c4cccnc4)c(=O)n3C[C@@H]2[C@H]1CO)c1ccccc1 | i | -1 | 5 | 0.2
COc1ccc(NC(=O)N(C)C[C@@H]2Oc3ccc(NC(=O)Cc4ccccc4)cc3C(=O)N([C@H](C)CO)C[C@H]2C)cc1 | + | 3 | 1 | 0.2
CC(=O)NC[C@H]1[C@H](c2ccc(-c3ccccc3F)cc2)[C@@H](CO)N1C(=O)C1CC1 | i | 0 | 1 | -2.0
C[C@H](CO)N1C[C@H](C)[C@@H](CN(C)S(=O)(=O)c2ccccc2)Oc2c(NC(=O)CCCCCC(=O)Nc3ccccc3N)cccc2C1=O | i | -2 | 6 | -1.8
CN1C[C@@H](O)COC[C@@H]2O[C@H](CC(=O)NC3CCCC3)CC[C@H]21 | i | 2 | 7 | -3.2
O=C(C[C@@H]1CC[C@@H]2[C@H](COC[C@H](O)CN2CC2CCCCC2)O1)NCC1CC1 | i | -5 | -10 | -2.1
CCCC(=O)Nc1ccc2c(c1)C(=O)N(C)C[C@@H](OC)[C@@H](C)CN(C(=O)CC1CC1)[C@H](C)CO2 | i | 4 | 4 | -2.2
COCC(=O)Nc1ccc2c(c1)OC[C@H](C)N(C(=O)Cc1ccccn1)C[C@@H](C)[C@H](OC)CN(C)C2=O | i | 3 | -4 | -0.4
O=C(NCc1ccc(F)cc1)[C@H]1[C@H](CO)[C@H]2Cn3c(cccc3=O)[C@@H]1N2CC1CCCC1 | i | -2 | 7 | -3.3
CC(=O)N1[C@@H](CO)[C@H](c2ccccc2)[C@@H]1CNC(=O)CN1CCOCC1 | i | 2 | 4 | -2.7

Nine successive entries out of the list so far:
SMILES | FGF22 binding | Ecoli rRNA inh | Ecoli rRNA inh OD600 | Ecoli rRNA inh RFP
O=C(C[C@H]1C[C@@H]2c3cc(NS(=O)(=O)c4ccc(F)cc4)ccc3O[C@@H]2[C@H](CO)O1)NCc1cccnc1 | i | 4 | 0 | 1.8
COCC(=O)N1C[C@H]2[C@@H](c3ccccc31)[C@@H](CO)N2Cc1ccccc1 | i | 0 | 3 | -2.1
COc1ccccc1CN1CC[C@@H]2[C@H](CO)Nc3ccc(-c4cccc(F)c4)cc3[C@@H]21 | i | -54 | -77 | -10
C[C@@H]1CN([C@H](C)CO)C(=O)c2cccc(NC(=O)Nc3cccc4ccccc34)c2O[C@@H]1CN(C)C(=O)Nc1cccc2ccccc12 | i | 3 | 4 | 0.4
CN1CCN(C(=O)C[C@@H]2CC[C@H]3[C@@H](COC[C@@H](O)CN3Cc3cccc(F)c3)O2)CC1 | i | 3 | 9 | -12
C[C@H](CO)N1C[C@H](C)[C@H](CN(C)C(=O)Nc2ccc3c(c2)OCO3)OCCCC[C@H](C)Oc2ccc(NC(=O)c3ccncc3)cc2C1=O | i | -2 | -3 | -0.5
Cc1noc(C)c1NC(=O)N(C)C[C@H]1Oc2ccc(NC(=O)CCN3CCOCC3)cc2C(=O)N([C@H](C)CO)C[C@H]1C | i | 3 | 5 | -0.7
C[C@H]1CN([C@@H](C)CO)C(=O)Cc2cc(NC(=O)Nc3ccc(F)cc3)ccc2O[C@H]1CN(C)C(=O)Nc1ccccc1 | i | 6 | 1 | 1.4
O=C(C[C@H]1CC[C@@H]2[C@H](COC[C@@H](O)CN2C(=O)c2ccccc2F)O1)NCc1ccc(Cl)cc1 | i | 1 | 4 | 31

Next entries
SMILES | FGF22 binding | Ecoli rRNA inh | Ecoli rRNA inh OD600 | Ecoli rRNA inh RFP
COc1ccc(CN(C)C[C@@H]2OCCCC[C@H](C)Oc3ccc(NS(=O)(=O)c4ccc(F)cc4)cc3C(=O)N([C@@H](C)CO)C[C@H]2C)cc1 | i | 3 | -10 | 5.4
CCCN1C[C@H](C)[C@@H](OC)CN(C)C(=O)c2cc(NS(=O)(=O)CC)ccc2OC[C@H]1C | i | -1 | -3 | -1.4
CCCNC(=O)[C@H]1[C@H](CO)[C@H]2Cn3c(ccc(-c4ccccc4OC)c3=O)[C@H]2N1C(=O)CC | i | 1 | 1 | 0.6
COc1ccccc1-c1cn(CC[C@@H]2CC[C@H](NC(=O)Cc3ccccn3)[C@H](CO)O2)nn1 | i | -1 | 4 | -0.3
CN1c2ccc(Br)cc2[C@@H]2[C@@H](CCN2C(=O)Nc2cccc(F)c2)[C@@H]1CO | i | -48 | -72 | -10
CCCC(=O)Nc1ccc2c(c1)C(=O)N(C)C[C@@H](OC)[C@@H](C)CN(C(C)=O)[C@@H](C)CO2 | i | 1 | 2 | -3.7

Screening results deposited in PubChem by Broad Institute.
